AID504770: E. coli YBA685 growth inhibition, screen for V. cholerae RctB inhibitors. z-score (no concentration beside the values). E. coli YBA685 rctB-dependent plasmid, OD600 growth, 3 h; stronger effect = lower value. 130,000 compounds, 0.27% hits;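 active = z-score under -2 on both plates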;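 also: wells of about 30 µL received 100 nL stock; score is relative to mean and SD of the test wells; the first replicate is given; strong numbers were not always called active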
CapD inh: CapD enzyme inhibition | purified CapD enzyme, fluorescence intensity read-out; stronger effect = lower value; some hits fall short of the stated cut | z-score (concentration not given with the values) | 140,000 compounds, 0.23% hits | AID 492967;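 active = z-score under -4 in either of two replicates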;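 also: stock transfer was 100 nL into about 40 µL; score is relative to mean and spread of the plate; one replicate is shown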
* = called active by the depositor; i = inactive; . = no result given.

SMILES | AID504770 | CapD inh
Cc1c(Cl)cccc1NC1=NS(=O)(=O)c2ccccc21 | 1.1 | -0.2
CCN(C(=O)c1cn(C)c(=O)c2cc(OC)c(OC)cc12)c1ccc(F)cc1 | -0.75 | 1.6
[N-]=C=N[n+]1ccc2ccccc2c1C(=O)c1ccc(Cl)cc1 | 0.35 | -0.74
CCOC(=O)c1cccc(NC(=O)c2cc3c(=O)[nH]c4ccccc4c3s2)c1 | -0.7 | 1.5
CN1CCN(C(=O)CNC(=O)C23CC4CC(CC(C4)C2)C3)CC1 | -0.1 | .
COC12CC[C@@]3(C[C@@H]1C(C)(O)C(C)(C)C)[C@H]1Cc4ccc(O)c5c4[C@@]3(CCN1CC1CC1)[C@H]2O5 (stereo not given in full) | . | 1.3
O=C(/C=C/c1ccccc1Cl)N1CCCCC1 | 0.2 | 0.37
Oc1ccc(/C=N/NC(=S)Nc2cccnc2)cc1 | -0.55 | .
CCn1cnc2sc(C(=O)N3CCN(Cc4ccccc4)CC3)c(C)c2c1=O | . | 0.13
N#CSc1ccc(N2CCOCC2)cc1 | -0.55 | 0.12
CCOC(=O)C1CCCN(c2nc3c(S(=O)(=O)c4ccccc4)nnn3c3ccccc23)C1 (stereo not given) | -0.15 | 0.68
Cc1cc(-c2nn(C)c(=O)c3ccccc23)cc(C)c1O | -1.1 | -0.86
OC1CCCN(CC(O)COc2ccc3ccccc3c2)C1 (stereo not given) | -0.05 | .
CCOC(=O)c1c(N)sc2c1CCCC2 | . | -0.71
O=C(CCC(=O)N(C1CC1)C1CCN(Cc2ccccc2)CC1)NCCc1ccccc1 | . | -0.54
CCOC(=O)c1sc2nc(SCC(=O)N(CC)CC)n(CC3CCCO3)c(=O)c2c1C (stereo not given) | . | 0.18
Cc1cc(C)c2nc(NCCNC(=O)C3CCCCC3)c(C#N)cc2c1 | 0.15 | .
CCNC(=S)Nc1ccccc1 | 0.8 | 0.68
N=C1S/C(=C\c2cn[nH]c2-c2ccc(F)cc2)C(=O)N1c1nccs1 | . | -0.03
COc1ccc(-c2cc(C(F)(F)F)nc(SCCC(=O)Nc3ccccc3)n2)cc1 | 0.3 | -0.55
CC(C)(C)OC(=O)N1CCC(C(=O)OCc2ccc(C#N)cc2)CC1 | 0.3 | .
CC(COC(=O)N1CCC2(CC1)C(=O)NCN2c1ccccc1)NC(=O)OC(C)(C)C (stereo not given) | . | 0.3
N#Cc1ccc(/C=N/NC(=O)Cc2cn3ccsc3n2)cc1 | 0.95 | .
N#Cc1ccccc1CN1c2cccc3cccc(c23)S1(=O)=O | 1.5 | .
CCCCOc1ccc(C2CC(=O)C3=C(C2)c2c(ccc4ccccc24)NC3c2ccc(OC)cc2)cc1 (stereo not given) | . | 29
CN(C)C(=O)c1ccc(-c2cc(C(F)(F)F)n(C)n2)s1 | -0.8 | 0.42
Cc1ccc(OCc2c(Cl)cccc2Cl)c([N+](=O)[O-])n1 | . | -0.82
Cn1c(N)c(C(=O)c2ccc(Cl)c(S(=O)(=O)N3CCCC3)c2)c(=O)[nH]c1=O | 0 | .
O=C(Nc1nccs1)C1(S(=O)(=O)c2ccc(Cl)cc2)CC1 | 0.05 | -0.21
c1ccc(OCc2nc(-c3ccccn3)n[nH]2)cc1 | -1.9 | .
COc1ccc(/C=N/c2nc3ccc(Br)cc3s2)cc1 | 0.05 | -0.79
O=C(Nc1ccc(Cl)cc1)c1ccc2nonc2c1 | -1.1 | -0.46
COc1ccc2cc(C(C)c3nc4ccccc4[nH]3)ccc2c1 (stereo not given) | -1.9 | 0.31
CC(=O)N1N=C(Cn2cnc3c(=O)n(C)c(=O)n(C)c32)OC1c1ccc2c(c1)OCO2 (stereo not given) | -1.3 | 0.11
COC(=O)c1cc(OC)c(OC)cc1NC(=O)Nc1cccc(Cl)c1 | . | 31
C=CCn1c(SCC(=O)Nc2ccc(OC)cc2)nc2sc(CC)cc2c1=O | . | -0.27
CC(=O)c1nnn(-c2cc(Cl)cc(Cl)c2)c1C | . | 0.17
O=C(NC1CCCC1)C(c1ccncc1)N(CCCN1CCOCC1)C(=O)c1ccc(-c2ccccc2)[nH]1 (stereo not given) | 0.25 | .
Cc1cc(C)nc(Sc2cccc(NC(=O)N(C)C)c2)n1 | . | -0.39
O=C(Nc1ccccc1Cl)c1cnsn1 | -0.7 | .

Given as comma-separated lines: 14 of the compounds above.
SMILES,AID504770,CapD inh
Cc1ccc(OCc2c(Cl)cccc2Cl)c([N+](=O)[O-])n1,.,-0.82
Cn1c(N)c(C(=O)c2ccc(Cl)c(S(=O)(=O)N3CCCC3)c2)c(=O)[nH]c1=O,0,.
O=C(Nc1nccs1)C1(S(=O)(=O)c2ccc(Cl)cc2)CC1,0.05,-0.21
c1ccc(OCc2nc(-c3ccccn3)n[nH]2)cc1,-1.9,.
COc1ccc(/C=N/c2nc3ccc(Br)cc3s2)cc1,0.05,-0.79
O=C(Nc1ccc(Cl)cc1)c1ccc2nonc2c1,-1.1,-0.46
COc1ccc2cc(C(C)c3nc4ccccc4[nH]3)ccc2c1 (stereo not given),-1.9,0.31
CC(=O)N1N=C(Cn2cnc3c(=O)n(C)c(=O)n(C)c32)OC1c1ccc2c(c1)OCO2 (stereo not given),-1.3,0.11
COC(=O)c1cc(OC)c(OC)cc1NC(=O)Nc1cccc(Cl)c1,.,31
C=CCn1c(SCC(=O)Nc2ccc(OC)cc2)nc2sc(CC)cc2c1=O,.,-0.27
CC(=O)c1nnn(-c2cc(Cl)cc(Cl)c2)c1C,.,0.17
O=C(NC1CCCC1)C(c1ccncc1)N(CCCN1CCOCC1)C(=O)c1ccc(-c2ccccc2)[nH]1 (stereo not given),0.25,.
Cc1cc(C)nc(Sc2cccc(NC(=O)N(C)C)c2)n1,.,-0.39
O=C(Nc1ccccc1Cl)c1cnsn1,-0.7,.

Remaining list, next part.
SMILES | AID504770 | CapD inh
Cc1cc(C)c2nc3s/c(=C\c4cc5c(cc4Br)OCO5)c(=O)n3c2c1 | . | -0.93
Cc1cc(C(=O)OCC(=O)N2CCC(C)CC2)c2ccccc2n1 | 0.65 | 3.7
O=C(Nc1nc2ccc(S(=O)(=O)N3CCCC3)cc2s1)c1ccccc1 | 0.55 | 0.86
Cc1nnc(SCC(=O)Nc2ccc(Cl)cc2Cl)c2ccccc12 | . | -0.73
Cc1ccc(O)c(C(N)(C(F)(F)F)C(F)(F)F)c1 | 1 | 0.29
CC(=O)OC1C(=O)OC2[C@@H](C)C(n3ccc(=O)[nH]c3=O)O[C@H]12 (stereo not given in full) | -0.9 | 0.29
c1ccc(N=c2scc(-c3ccccc3)n2CCN2CCOCC2)cc1 | 0.9 | -2.6
Cn1c(=O)c(C(=O)/C=C/C=C/c2ccccc2)c(O)c2ccccc21 | 1.1 | -0.055
Cc1nc2ccccc2c(C(=O)OCC(=O)Nc2ccc(Cl)cc2F)c1C | 0.6 | -0.03
COc1ccc(-n2ncc(NCCc3ccccn3)c(Cl)c2=O)cc1 | . | 9.9
CN=C(Nc1cc(C(F)(F)F)ccc1-n1ccnc1)c1ccccc1 | -0.75 | -0.58
CC(=O)N(C)c1ccc(NC(=O)C(C)(C)C)cc1 | . | -0.2
Cc1cc(N2CCN(C)CC2)nc2ccc(NC(=S)NC3CC3)cc12 | -0.75 | 1.1
COc1ccc(Br)cc1CNC(=O)CCn1c(=O)c2cccn2c2cccnc21 | 0.65 | -0.6
O=C(NC1CCCCC1NC(=O)c1ccco1)c1ccco1 (stereo not given) | -0.25 | .
CCN1C(=O)C2(Cc3ccccc3N3CCCC32)C(=O)N(CC)C1=S (stereo not given) | 2.7 | .
CCOc1ncccc1C(=O)NCC12CC3CC(CC(C3)C1)C2 | -1 | .
Fc1ccc2nc(C(F)(F)F)cc(N3CCOCC3)c2c1 | -1.4 | -0.52
N#Cc1ccncc1Sc1ccc(Cl)cc1 | -0.15 | -0.53
CCOc1cc(C(=O)NC2CCCCC2C)cc(OCC)c1OCC (stereo not given) | -0.75 | .
O=C(O)CCc1nn2c(nc3ccccc32)[nH]c1=O | -0.05 | 0.86
Clc1nccc2nc(N3CCCCCC3)ncc12 | 0.75 | -1.2
Cc1cc(NC(=O)CSC2=Nc3ccccc3CS2)no1 | -0.75 | .
COc1ccc(NS(=O)(=O)c2cn(C)cn2)cc1 | -0.05 | -0.41
Cc1ccc(-n2nnc3c(SCC(=O)Nc4cc(C)on4)ncnc32)cc1 | -0.9 | .
O=C(CNC(=S)N(Cc1ccccc1)Cc1ccccc1F)N1CCCC1 | -0.4 | 30
CC1(C)CCCC(C)(C)N1Sc1ccccc1 | 1.6 | 0.2
COC(c1ccccc1)c1oc2c(C)c3oc(=O)cc(C)c3cc2c1-c1ccccc1 (stereo not given) | . | -0.61
CCOC(=O)c1c(C)c(C)c(C)[nH]c1=S | -0.35 | .
CCOC(=O)c1cccc(NC(=O)CCOc2ccccc2)c1 | -0.3 | -0.54
Cc1cc(O)c(NC(=O)c2ccccc2Cl)cc1C | 0.15 | 0.79
O=c1cc[nH]c2cc(Cl)cc(Cl)c12 | . | -0.97
COC(=O)c1ccc(COc2ccc(NC(C)=O)cc2)o1 | -0.6 | 0.98
COc1ccc(/C=C2\SC(=N)N(c3ccc4c(c3)OCO4)C2=O)cc1OC | . | -0.75
CCOC(=O)c1cnc(C(F)(F)F)nc1Oc1ccccc1 | -0.75 | -0.44
O=C(O)/C=C/C(=O)N1CC=C(c2ccccc2)CC1 | 1.3 | 0.035
O=C(Nc1cc(Cl)cc(Cl)c1)OC1CN(C(c2ccccc2)c2ccccc2)C1 | -0.25 | -0.075
O=C(Nc1cc(Cl)ccc1Oc1ccc(Cl)c2ccccc12)c1cc(I)cc(I)c1O | . | -0.81
Cc1ccc(C(=O)Nc2nonc2C)cc1 | -0.1 | -0.095
O=C1NC(=S)S/C1=C/c1ccc(-c2ccc3c(c2)C(=O)NC3=O)o1 | -0.2 | 2.4
CC1CN(c2ccc(NS(=O)(=O)c3ccccc3)cc2C(=O)O)CC(C)O1 (stereo not given) | -0.3 | 0.1
CCOC(=O)c1csc(-c2ncc(C(F)(F)F)cc2Cl)n1 | -0.9 | 7.7
O=S(=O)(NCC12CC3CC(CC(C3)C1)C2)c1cc(C(F)(F)F)cc(C(F)(F)F)c1 | . | 0.24
Cc1ccc(S(=O)(=O)NC(=O)NC2CC(C)(C)NC(C)(C)C2)cc1 | 0.2 | .
CC1(C)CC(NC(=O)c2scc3c2OCCO3)CC(C)(C)N1 | -0.35 | 0.45
N#Cc1c(-c2cccc(F)c2)cc(-c2ccccc2)nc1SCC(=O)Nc1nc2ccccc2o1 | . | 2
CC(=O)N1CCc2cc(NC(=O)c3ccccc3S(C)(=O)=O)ccc21 | . | -0.005
COc1ccc2c(c1)CC/C(=C/c1ccccn1)C2=O | -1.1 | -2.5
N#C/C(=C\c1c(Oc2ccccc2)nc2ccccn2c1=O)C(=O)NC1CCS(=O)(=O)C1 (stereo not given) | 0.05 | 5.9
CC(C)(CO)NC(=O)C1CC(c2c(F)cccc2Cl)=NO1 (stereo not given) | 0.3 | .
O=C(CSc1nnc(-c2c[nH]c3ccccc23)o1)C12CC3CC(CC(C3)C1)C2 | 0.55 | .
Cc1cccn2cc(-c3cccc(NC(=O)c4ccccc4)c3)nc12 | 0.5 | 83
O=C(NCc1ccccc1C(F)(F)F)c1ccc(CSc2ccccn2)o1 | . | 0.42
CC(=O)Oc1ccc(C(=O)Nc2ccc3nc(-c4ccc(Cl)cc4)oc3c2)cc1 | . | 1.2
O=C(/C=C/c1ccco1)N(Cc1ccccc1F)C1CCS(=O)(=O)C1 (stereo not given) | 0.15 | -0.66
O=C(O)CCC(=O)OC1N=C(c2ccccc2Cl)c2cc(Br)ccc2NC1=O (stereo not given) | -0.35 | -0.23
COc1cccc(N2CC(=O)N(/N=C/c3ccccn3)CC2=O)c1 | -0.15 | 0.16
CC(C)N(C(=O)CSc1nccc(=O)[nH]1)c1ccccc1 | -0.45 | .
COc1ccccc1NC(=O)C1=C(C)Nc2sc(C#N)c(N)c2C1c1ccco1 (stereo not given) | 0.15 | .
Cc1cc(C)c(NC(=S)NCc2ccco2)c(C)c1 | . | -0.09

Further compounds follow:
SMILES | AID504770 | CapD inh
COc1ccc(S(=O)(=O)n2c(SCc3ccc(C(F)(F)F)cc3)nc3ccccc32)cc1 | -0.1 | 0.45
COc1cccc(C(=O)OCC(=O)NC23CC4CC(CC(C4)C2)C3)c1 | 1.1 | 0.2
N#Cc1cccc(NC(=O)/C=C/c2ccco2)c1 | -0.5 | .
CC(NC(=O)/C=C/c1ccccc1Cl)c1ccccc1 (stereo not given) | -0.85 | -2.1
COC(=O)c1ccc2c(C)cc(=O)oc2c1 | . | 105
N#CC1=C(N)Oc2n[nH]c(-c3ccc4c(c3)OCO4)c2C1c1ccccc1C(F)(F)F (stereo not given) | . | -0.055
CC(=O)Nc1nnc(SCc2cccc(F)c2)s1 | 1.3 | -0.14
CCCN(Cc1cccs1)C(=O)Nc1cc(OC)cc(OC)c1 | -0.75 | -0.36
O=c1c2cnn(-c3ccccc3)c2nc(-c2cccs2)n1-c1ccc(Br)cc1 | -0.75 | 0.11
NS(=O)(=O)c1ccc2nc(NC(=O)c3cccc(C(F)(F)F)c3)sc2c1 | 0.2 | i
O=C(O)C1CC=CCC1C(=O)Nc1ccc(C(=O)N2CCCc3ccccc32)cc1 (stereo not given) | 0.45 | -0.59
CC(=O)Nc1c(-c2cccc(C(F)(F)F)c2)c(C(F)(F)F)nn1C | 0.05 | 0
CC(C)(C)c1cc2oc3c(c2cc1OC(=O)c1ccccc1[N+](=O)[O-])CCCC3 | . | -0.41
CC1(c2ccccc2)CC(C)(C)N(C(=O)c2ccco2)c2ccccc21 (stereo not given) | -0.3 | -0.48
Cc1cccc(NC(=O)Cc2ccc(NC3=NC4CS(=O)(=O)CC4S3)cc2)c1 (stereo not given) | -0.1 | -0.38
O=C(/C=C/c1ccccc1)Nc1nnc(CSCc2ccccc2F)s1 | 0.2 | -0.16
NS(=O)(=O)c1ccc(CCNC(=S)NC2CCCC2)cc1 | -1 | -0.34

As entered above.
CC(=O)N(C)c1ccc(NC(=O)C(C)(C)C)cc1 @ CapD inh: -0.2
O=C(O)CCC(=O)OC1N=C(c2ccccc2Cl)c2cc(Br)ccc2NC1=O (stereo not given) @ CapD inh: -0.23

Bioassay records as filed in PubChem BioAssay.

Rows were taken by chance; any-hit rate near 0.37%.
